From PubChem BioAssay
YopH PTP inh = YopH (Yersinia) phosphatase inhibition. fluorescence Ex485/Em525. inhibition, %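 (about 10 µM by stock and volumes)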. hit rate 0.16% among 140,000. AID 898;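 active means inhibition of 50% or more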;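 further: controls were vehicle for no effect and minimum signal wells for full effect; inactives centre near -20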
Arbovirus anti = blocks arbovirus infection; arbovirus infection cell-based antiviral screen; inhibition, % at 10 µM; hit rate 0.37% among 200,000; AID 1251;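 active means inhibition from about 30%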;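 further: bluetongue infection of BSR cells; cell survival read as ATP light after 72 h; 0% = infected wells without compound and 100% = uninfected wells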
Mtb H37Rv = M. tuberculosis H37Rv growth inhibitors, H37Rv strain (AID 1626) | M. tuberculosis H37Rv growth inhibition; higher % means a stronger effect | inhibition, % at 10 µM, or IC50 in µM where a hit was titrated | hit rate 0.95% among 220,000;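 active means confirmed in a dose series; inconclusive means inhibition above 80% but not taken into the dose series; inactive means below 80% or under 30% at every dose of the series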;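 further: bacteria incubated seven days before Alamar blue readout; 0% = bacteria only wells and 100% = bacteria with antibiotic wells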
Mtb betalactam = beta-lactam sensitization of Mtb H37Rv; M. tuberculosis H37Rv growth with meropenem, percent inhibition; hits of this screen are not shown here; inhibition, % at 25 µM; hit rate 0.27% among 330,000; AID 434955;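 active means about 74% or more and at least 40 points above the plate without the antibiotic, then above 30% in a dose series; inconclusive means first-round hits that could not be retested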;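 further: growth measured after seven days incubation then overnight dye step; 0% = bacteria only wells and 100% = bacteria with antibiotic; twin plates without the antibiotic show which effects depend on it; some results filed as inactive read as strong as hits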
RecA splice inh = inhibitors of M. tuberculosis RecA intein splicing | P9WHJ3 | cell-free RecA intein splicing, fluorescence | inhibition, %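 (about 9 µM by stock and volumes)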 | hit rate 0.75% among 290,000 | AID 2221; in the data active means inhibition above about 30%; inconclusive means no clear call, values can overlap the other calls;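 further: 0% = vehicle wells and 100% = reference inhibitor control wells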
Target sequence (P9WHJ3 whole entry, looked up, canonical isoform): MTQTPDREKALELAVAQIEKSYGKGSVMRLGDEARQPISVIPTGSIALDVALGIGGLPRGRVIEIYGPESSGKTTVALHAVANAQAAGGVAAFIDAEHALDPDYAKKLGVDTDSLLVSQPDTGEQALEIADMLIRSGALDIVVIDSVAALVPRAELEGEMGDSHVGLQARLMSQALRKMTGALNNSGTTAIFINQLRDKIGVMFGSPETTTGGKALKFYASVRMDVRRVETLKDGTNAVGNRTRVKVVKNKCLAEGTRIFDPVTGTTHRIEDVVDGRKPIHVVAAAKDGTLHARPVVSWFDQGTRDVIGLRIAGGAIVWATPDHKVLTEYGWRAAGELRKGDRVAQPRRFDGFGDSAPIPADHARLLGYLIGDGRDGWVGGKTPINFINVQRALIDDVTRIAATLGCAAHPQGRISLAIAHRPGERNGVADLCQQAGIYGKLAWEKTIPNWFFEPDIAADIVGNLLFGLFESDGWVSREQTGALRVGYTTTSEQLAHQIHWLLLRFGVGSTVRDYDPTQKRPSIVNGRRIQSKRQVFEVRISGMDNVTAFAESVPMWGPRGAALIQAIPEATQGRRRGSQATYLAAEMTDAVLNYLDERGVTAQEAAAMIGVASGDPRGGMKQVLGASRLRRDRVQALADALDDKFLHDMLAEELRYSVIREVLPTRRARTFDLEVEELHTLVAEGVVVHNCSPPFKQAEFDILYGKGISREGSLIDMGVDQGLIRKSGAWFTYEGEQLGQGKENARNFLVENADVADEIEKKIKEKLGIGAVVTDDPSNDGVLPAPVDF
Arbovirus anti repeat = second read-out of Arbovirus anti, no call of its own (marks repeat the call); inhibition, %; measured here: 10K subset replicate screen; many hits read low in the repeat;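 first of two repeat runs on a subset; 0% = infected and 100% = uninfected wells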
* hit, by the source's call; ? = inconclusive; · = not tested or not shown; & = joins results of further samples.

SMILES	YopH PTP inh	Arbovirus anti	Mtb H37Rv	Mtb betalactam	RecA splice inh	others
COc1ccc(-c2csc(/C=C/c3ccc4c(c3)OCO4)n2)cc1OC	-26	-3	-1%	·	-1.0
COc1ccc(NC(=S)N2N=CCC2c2ccccc2)cc1 (centres undefined)	-21	6	-3%	2	1.2
Cc1c(Cl)cccc1NC(=S)N(Cc1ccco1)C(C)c1ccccn1 (centres undefined)	·	5	0%	-7	6.7
CCOc1cc(C(=S)N2CCCC2)ccc1OCc1ccccc1	·	·	·	-5	3.0
COc1ccc(C(CNC(=O)c2cccc(NS(=O)(=O)c3ccc(C)c(F)c3)c2)N2CCOCC2)cc1 (centres undefined)	·	·	·	-4	0.4
Nc1ccc(S(=O)(=O)NC2(C(F)(F)F)NC(=O)N(c3ccc(F)cc3)C2=O)cc1 (centres undefined)	·	·	·	-8	-4.6
CC(C)c1c(C(=O)N/N=C/c2c[nH]c3ccccc23)nnn1-c1nonc1N	·	·	·	9	0.8
O=C(NCCc1c[nH]c2ccccc12)c1ccc2[nH]c(=O)c(=O)[nH]c2c1	·	·	·	6	-1.2
Cn1c(=O)[nH]c(=O)c2c1ncn2CCCc1ccccc1	-24	0	0%	-4	4.1
COC(=O)C1=C(c2ccc(S(C)(=O)=O)cc2)C[C@@H]2CC[C@H]1N2C(=O)NCc1ccc(C(F)(F)F)cc1	·	·	2%	-5	-1.4
COc1ccc(NC(=O)COC(=O)COc2cccc3c2OC(C)(C)C3)cc1	·	·	·	0	-1.9
COc1ccc(OC)c(-c2nnc(NC(=O)C(C)Sc3nncn3C)s2)c1 (centres undefined)	-45	-1	-2%	0	-5.8	Arbovirus anti repeat=2
CCc1cc2ccccc2nc1SCC(=O)NC1CCCC1	·	·	·	39	1.9
Cc1ccc(/C=C/C(=O)Nc2nnc(C)s2)o1	-26	-2	-6%	-4	-1.4
Cn1c(/C(C#N)=C/c2cccc(O)c2)nc2ccccc21	·	-5	6%	4	4.1

Pulled by compound from the entries so far:
SMILES	YopH PTP inh	Arbovirus anti	Mtb H37Rv	Mtb betalactam	RecA splice inh	others
COc1ccc(-c2csc(/C=C/c3ccc4c(c3)OCO4)n2)cc1OC	-26	-3	-1%	·	-1.0
CCc1cc2ccccc2nc1SCC(=O)NC1CCCC1	·	·	·	39	1.9
Nc1ccc(S(=O)(=O)NC2(C(F)(F)F)NC(=O)N(c3ccc(F)cc3)C2=O)cc1 (centres undefined)	·	·	·	-8	-4.6

New compounds follow
SMILES	YopH PTP inh	Arbovirus anti	Mtb H37Rv	Mtb betalactam	RecA splice inh	others
O=C(c1cccc(N2C(=O)C3CC=CCC3C2=O)c1)N1CCCCCC1 (centres undefined)	-28	5	-3%	3	-2.4
CCc1ccc2oc(C(=O)N3CCN(C)CC3)cc(=O)c2c1	·	·	·	3	0.3
CSCCC(NC(=O)c1cc(C)oc1C)C(=O)O (centres undefined)	-35	7	-4%	-3	1.2
COc1cccc(Cn2c(=O)oc3ccccc32)c1	·	·	·	4	0.6
CC(=O)Cc1nsc(NC(=O)c2ccc(COc3ccccc3Cl)o2)n1	·	·	·	-4	0.5
COC(=O)C1=C(C)N(CC2CC2)C(=NCc2cc(OC)c(OC)c(OC)c2)N[C@H]1c1ccccc1	·	·	·	-12	0.8
COCC(=O)Nc1cc(C(=O)NCC(C)C)ccc1Cl	3	7	1%	-4	-8.2
CCCNC(=O)CCC(=O)Nc1ncc(-c2ccc(C)cc2)n1C	-29	0	-9%	2	·
Cc1ccc2[nH]cc(CCNS(=O)(=O)c3ccc(F)cc3)c2c1	·	·	·	7	-1.6
CS(=O)(=O)N(CC(=O)N1CCCC1)c1ccc2c(c1)OCCO2	9	13	-10%	-13	-1.8
O=C(O)C1[C@H]2C(=O)N(Cc3cccs3)C[C@]23C=C[C@H]1O3 (some centres undefined)	-33	2	-4%	-2	0.6
Cc1ccc(NC(=O)c2sccc2C)cc1S(=O)(=O)N(C)C	-21	-10	-4%	-3	1.9
CCOC(=O)c1sc(NC(=O)CCN2CCN(C)CC2)c(C(=O)OCC)c1C	·	-34	-6%	-9	5.2
CC(=O)N1CCCc2cc(S(=O)(=O)N3CCCC(C)C3)ccc21 (centres undefined)	·	·	·	6	-1.0
CCOC(=O)c1cc(C)sc1NC(=S)Nc1ccccc1	-10	-8	3%	-7	3.4

A draw from above in order of molar mass, falling.
SMILES	YopH PTP inh	Arbovirus anti	Mtb H37Rv	Mtb betalactam	RecA splice inh	others
COC(=O)C1=C(C)N(CC2CC2)C(=NCc2cc(OC)c(OC)c(OC)c2)N[C@H]1c1ccccc1	·	·	·	-12	0.8
CC(=O)Cc1nsc(NC(=O)c2ccc(COc3ccccc3Cl)o2)n1	·	·	·	-4	0.5
Cc1ccc(NC(=O)c2sccc2C)cc1S(=O)(=O)N(C)C	-21	-10	-4%	-3	1.9
Cc1ccc2[nH]cc(CCNS(=O)(=O)c3ccc(F)cc3)c2c1	·	·	·	7	-1.6
CCCNC(=O)CCC(=O)Nc1ncc(-c2ccc(C)cc2)n1C	-29	0	-9%	2	·
CCc1ccc2oc(C(=O)N3CCN(C)CC3)cc(=O)c2c1	·	·	·	3	0.3
CSCCC(NC(=O)c1cc(C)oc1C)C(=O)O (centres undefined)	-35	7	-4%	-3	1.2

Later entries:
SMILES	YopH PTP inh	Arbovirus anti	Mtb H37Rv	Mtb betalactam	RecA splice inh	others
CCOC(=O)Cn1c(=O)oc2cc(S(=O)(=O)N(C)Cc3ccccc3)ccc21	·	·	3%	-11	-2.6
CC1(C)CC(=O)C(C(c2ccc(F)cc2)C2C(=O)CC(C)(C)CC2=O)C(=O)C1	-11	7	2%	9	-2.7
CCCCN(CC)c1nc(N)c2c(N)nc(OCC)cc2c1C#N	-19	5	16%	88	2.0
S=C(NCc1ccco1)Nc1ccc(N2CCOCC2)cc1	-14	2	-13%	60	-3.3
c1cc2cn[nH]c2cc1NC1CCCCCC1	-18	-5	-2%	12	89*
O=C(O)CC1(CC(=O)Nc2cc(F)ccc2Cl)CCCCC1	·	·	-6%	-9	3.1
CCn1c(/C=C/c2ccccc2F)nc2ccccc2c1=O	·	·	·	2	0.6
Cc1ccc(/C=C/C(=O)OCC(=O)Nc2cccc(S(=O)(=O)N(C)C)c2)o1	-34	4	-1%	-6	0.7
CCCCNC(=O)O[C@H]1C[C@@H]2CCN3C(=O)CCC[C@H]([C@H]1Cc1ccccc1)[C@H]23	·	·	·	-7	-3.7
CC(=O)Nc1nnc(SCC(=O)Nc2ccc3c(c2)OCCO3)s1	·	·	·	-15	1.2
c1ccc(Cc2nnc(N3CCOCC3)c3ccccc23)cc1	-13	2	-4%	-4	-2.8
CC1CN(S(=O)(=O)c2ccccc2)CC(C)O1 (centres undefined)	-24	3	-7%	-11	0.5
CCC(=O)Nc1ccc(Cl)c(NC(=S)NC(=O)COc2ccccc2)c1	-54	3	8%	-9	-0.6
N/C(=N\OC(=O)c1ccc(Br)cc1)c1ccccc1	-33	7	-2%	·	6.1
COc1ccc(S(=O)(=O)N(C)C(C)CCc2ccco2)cc1 (centres undefined)	·	·	·	3	4.3

Molecules from the list above containing a cyano group:
SMILES	YopH PTP inh	Arbovirus anti	Mtb H37Rv	Mtb betalactam	RecA splice inh	others
Cn1c(/C(C#N)=C/c2cccc(O)c2)nc2ccccc21	·	-5	6%	4	4.1
CCCCN(CC)c1nc(N)c2c(N)nc(OCC)cc2c1C#N	-19	5	16%	88	2.0

The results go on:
SMILES	YopH PTP inh	Arbovirus anti	Mtb H37Rv	Mtb betalactam	RecA splice inh	others
Cc1cccc(N2CCN(C(=O)C3CCC(=O)N(C4CC4)C3)CC2)c1C (centres undefined)	·	·	·	1	1.0
Cc1ccc(C)c(-n2c(Cc3cc(=O)[nH]c(=O)[nH]3)nnc2SCC(=O)NCc2ccco2)c1	-51	·	·	-3	·
CCOc1ccc(N=C(/C(C(=O)C(=O)N2CCOCC2)=C(/O)c2ccccc2)c2ccccc2)cc1	·	·	71%	97	5.6
O=C(NCCN1CCOCC1)C1CCC(=O)N1Cc1ccccc1Cl (centres undefined)	-37	1	-1%	-2	-2.1
CCOC(=O)C1=C(N)Oc2cc(C)[nH]c(=O)c2C1c1ccncc1 (centres undefined)	-47	-1	-2%	6	-5.6
Cc1ccc(S(=O)(=O)N2CCOCC2)cc1C(=O)NCCN1C(=O)S/C(=C\c2ccccc2Cl)C1=O	-24	2	3%	-3	13
CCCc1noc2c1/C(=N\O)CC(CC(C)SCC)C2 (centres undefined)	-43	3	-6%	3	5.3
COc1ccc(OC)c(NC(=O)c2[nH]c(C)c(C(C)=O)c2C)c1	-10	-2	-15%	-11	1.3
CC(C)(C)NC(=O)NC(=O)COC(=O)c1ccc(OC(F)(F)F)cc1	-15	-3	1%	·	1.4
CC(C)N(C(=O)COC(=O)c1cccc(C(=O)OCC(=O)N(C(C)C)C(C)C)n1)C(C)C	·	2	5%	6	4.0
CCCNC(=O)c1nnsc1S(=O)(=O)c1ccc(Cl)cc1	·	-37	25µM*	·	·
Cc1ccc(NC(=O)COC(=O)C(NS(=O)(=O)c2ccc(Cl)cc2)C(C)O)cc1C (centres undefined)	-21	6	48%	96	3.2
COc1ccc(S(=O)(=O)N2CCN(C(=O)c3ccco3)CC2)cc1C(C)(C)C	·	·	·	6	1.1
Cc1ccc(C(=O)N/C(N)=N/c2nc3ccccc3o2)cc1	0	-10	1%	19	-0.1
COc1ccc(CCNC(=O)c2cc(S(=O)(=O)N3CCC4(CC3)OCCO4)ccc2F)cc1OC	·	4	-7%	11	·
C[C@@H]1CN(c2c(F)c(N)c3c(=O)c(C(=O)O)cn(C4CC4)c3c2F)C[C@H](C)N1	·	12	?	·	·
COc1cc(CNC2CCCCC2OC)cc(OC)c1OC (centres undefined)	-20	6	0%	-4	-0.5
Cc1c(NC(=O)C2CCCO2)cccc1[N+](=O)[O-] (centres undefined)	-29	2	-1%	-4	-0.6
N#CN/C(=N\S(=O)(=O)c1ccccc1)c1ccccc1	·	·	·	-1	-1.4
OCCNc1ncnc2ccc(Br)cc12	-27	8	2%	-14	0.8
COc1ccc(CNC(=O)CCCN2C(=O)c3ccccc3C2=O)cc1	·	11	2%	-7	-1.3
CS(=O)(=O)Nc1ccc(S(=O)(=O)NCCc2ccccc2)cc1	-16	16	-6%	-6	-1.9
OCCC1CN(Cc2cccc(OC3CCCC3)c2)CCN1Cc1ccsc1 (centres undefined)	·	1	6%	-4	·
CCCN1CCC(NC(=O)Nc2ccc(Br)cc2)CC1	·	-5	-3%	-5	-1.9
CC1C(=O)CC(c2ccccc2)N(C)C1c1ccccc1 (centres undefined)	-13	-2	2%	-3	-5.1	Arbovirus anti repeat=4
N/C(=N\OC(=O)CCCOc1ccccc1)c1ccccc1	-21	4	12%	8	2.9
CS(=O)(=O)C1=C(O)C(=O)N(CCCC(=O)O)C1c1ccccc1F (centres undefined)	-14	0	1%	-24	1.5
Cc1noc(C)c1C(=O)NC1=NCCS1	·	·	·	-1	-6.7
COc1cc(C2NC(=O)C(C#N)=C(Nc3cccc(C)c3)S2)ccc1O (centres undefined)	·	·	-9%&-8%	-9	87*
N#Cc1c(Cl)cccc1-n1ccnc1	-2	9	-18%	-9	11
CCOc1ccc(C(=O)CCC(=O)N(CC)CC(=O)NCc2ccc(Cl)cc2)cc1	·	·	·	-11	0.9
C=CCSc1nc(N)c(C(=O)Nc2ccccc2)cc1C#N	-20	-6	3%	28	0.9
COc1ccc(C(=S)N2CCCC2)cc1Br	·	·	·	-1	-1.4

Only part of the results is shown (hit frequency here may not be typical).
